KCNQ2 inh: KCNQ2 channel blockers in CHO-K1 cells – cell-based, FluxOR thallium flux, B-score, primary screen (AID 2156); B-score at 10 µM; 20 min; active compounds read low; only compounds with negative scores are shown here; some inactives read as strong as hits; hit rate 1.1% among 310,000; O88943;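 active = fluorescence ratio B-score at most minus 3 library SDs, with starting brightness B-score within 2 library SDs, cut at about -5.5 in these data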
Target sequence (O88943 whole entry, looked up): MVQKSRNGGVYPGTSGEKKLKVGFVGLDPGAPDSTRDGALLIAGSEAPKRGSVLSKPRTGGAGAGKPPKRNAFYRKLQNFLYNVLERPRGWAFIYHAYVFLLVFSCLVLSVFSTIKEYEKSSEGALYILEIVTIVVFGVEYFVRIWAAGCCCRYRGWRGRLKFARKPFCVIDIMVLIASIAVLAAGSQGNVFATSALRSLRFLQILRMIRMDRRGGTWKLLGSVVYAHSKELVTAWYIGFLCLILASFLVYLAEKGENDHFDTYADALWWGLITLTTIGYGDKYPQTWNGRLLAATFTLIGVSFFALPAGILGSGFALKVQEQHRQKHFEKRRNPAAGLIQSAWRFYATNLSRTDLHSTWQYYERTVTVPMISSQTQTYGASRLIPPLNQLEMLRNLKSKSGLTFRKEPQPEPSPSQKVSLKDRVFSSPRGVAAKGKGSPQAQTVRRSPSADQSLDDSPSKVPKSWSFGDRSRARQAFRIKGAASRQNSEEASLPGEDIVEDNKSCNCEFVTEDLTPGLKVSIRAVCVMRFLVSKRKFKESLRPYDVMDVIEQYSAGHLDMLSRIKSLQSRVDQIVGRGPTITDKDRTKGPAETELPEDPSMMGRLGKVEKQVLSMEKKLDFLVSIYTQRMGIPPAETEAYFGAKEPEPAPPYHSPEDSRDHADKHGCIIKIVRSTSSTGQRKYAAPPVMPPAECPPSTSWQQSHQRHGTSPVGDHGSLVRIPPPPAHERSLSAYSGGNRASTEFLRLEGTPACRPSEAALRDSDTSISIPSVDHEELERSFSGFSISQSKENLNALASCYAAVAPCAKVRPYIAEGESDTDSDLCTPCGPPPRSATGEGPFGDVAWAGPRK
KCNQ2 inh baseline: recorded beside KCNQ2 inh, whose call it bears; B-score; measured here: initial fluorescence intensity artifact check;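 brightness before thallium and not channel activity; 0 = typical well and far values either way flag optical interference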
* hit, by the source's call; i = inactive. Only part of the results is shown, so the mix of outcomes need not match the whole.

SMILES	KCNQ2 inh	KCNQ2 inh baseline
O=C(NCc1ccccc1)c1onc(CSc2ccc(F)c(F)c2)c1C(=O)NCc1ccccc1	i	-0.05
OC(COc1ccc2ccccc2c1Br)Cn1ccnc1 (stereo not drawn)	i	1.25
CC(C)C(C(=O)O)N1C(=O)/C(=C/C=C/c2ccco2)SC1=S (stereo not drawn)	i	-0.18
Cc1cccc(NC(=S)NNC(=O)c2cccc([N+](=O)[O-])c2)c1	i	-0.8
CN(C)S(=O)(=O)c1cccc(NC(=S)N/N=C/C(c2ccccc2)c2ccccc2)c1	i	-1.24
S=c1nc(-c2ccccc2Br)[nH][nH]1	i	0.31
O=C(CCN1C(=O)/C(=C/c2ccccc2F)SC1=S)NCCCn1ccnc1	i	0.55
COc1nc(NCC(C)C)nc(Oc2ccc(=O)n(-c3ccccc3)n2)n1	i	-1.93

Filtered by structure: those above containing a carbonyl joined to an NH by a bond outside any ring.
SMILES	KCNQ2 inh	KCNQ2 inh baseline
O=C(NCc1ccccc1)c1onc(CSc2ccc(F)c(F)c2)c1C(=O)NCc1ccccc1	i	-0.05
Cc1cccc(NC(=S)NNC(=O)c2cccc([N+](=O)[O-])c2)c1	i	-0.8
O=C(CCN1C(=O)/C(=C/c2ccccc2F)SC1=S)NCCCn1ccnc1	i	0.55

(next part)
SMILES	KCNQ2 inh	KCNQ2 inh baseline
Cc1ccc(C)c(NC(=S)N2CCC(c3nc4ccccc4s3)CC2)c1	i	-0.75
COc1cc(C(O)P(=O)(OC(C)C)OC(C)C)cc(OC)c1OC (stereo not drawn)	i	0.39
O=C1C2CCCN2C(c2ccco2)N1c1ccc(F)cc1 (stereo not drawn)	i	-1.12
O=C(N/C(=C/c1cccs1)C(=O)N1CCCC1)c1ccccc1	i	-0.02
CN1CCN(CC2(O)CCN(S(=O)(=O)c3ccc(Cl)cc3)CC2)CC1	i	0.86
Brc1ccc(Oc2nnnn2-c2ccccc2)cc1	i	-0.41
CCOC(=O)Cc1csc(NC(=O)CSc2nnc(-n3nc(C)cc3C)c3ccccc23)n1	i	0.2
Cc1cccn2cc(CNc3ccccc3)nc12	i	0.97
CCNc1nc(NC(C)C)nc(SCCOc2ccc(C)cc2)n1	-5.56*	-0.77*
COc1ccc(C(=O)Nn2c(SCC(=O)NC3CCCCC3)nc3ccccc3c2=O)cc1	i	0.19
Cn1ccc(-c2cc(C(=O)O)c3ccccc3n2)n1	i	1.1
COC(=O)c1ccc(N2C(=O)CC(N3CCN(C(=O)c4ccco4)CC3)C2=O)cc1 (stereo not drawn)	i	1.15
CN(C)Cc1cc(O)c(CN(C)C)cc1O	i	0.33
Cc1cc(N2CCC(C)CC2)c(F)cc1[N+](=O)[O-]	i	0.81
COC(=O)c1ccc2nc(NC(=O)CSCC(=O)OCC(=O)c3ccccc3)sc2c1	i	-0.55
Cc1ccc(C(=O)NC2(C(F)(F)F)NC(=O)N(c3ccc(Cl)cc3)C2=O)cc1 (stereo not drawn)	i	0.11
CC(C)(C)c1csc(NC(=O)C2COc3ccccc3O2)n1 (stereo not drawn)	i	-1.74
COC(c1ccccc1)c1c(-c2ccccc2)nn(C)c1Cl (stereo not drawn)	i	2.52
NC(=O)C1CCN(C(=O)CC2C(=O)NCCN2Cc2cccc(Oc3ccccc3)c2)CC1 (stereo not drawn)	i	0.31
CC1CCC(CN2CCN=C2Nc2ccccc2)CC1 (stereo not drawn)	i	1.24
COc1ccc2[nH]c(=O)c(CN(Cc3cccnc3)C(=O)Nc3ccccc3)cc2c1	i	-0.9
CSc1cccc(NC(=O)CSc2ccc(C)cc2)c1	i	0.95
COc1ccc(C(CC(=O)O)NS(=O)(=O)c2ccc3c(c2)NC(=O)CO3)cc1 (stereo not drawn)	i	0.05
CCOC(=O)C1(CCc2ccccc2)CCN(C(=O)C2CCCO2)CC1 (stereo not drawn)	i	-1.25
Cc1cc(C)n2c(SCc3ccc(Cl)cc3Cl)nnc2n1	i	2.68
CN(C)C(=O)Nc1ccc(F)cc1F	i	1.44
COc1ccc(C(CNC(=O)c2cccc(S(=O)(=O)NCc3ccccc3)c2)N2CCOCC2)cc1 (stereo not drawn)	i	0.32
COc1ccc(-n2cccc2C=O)cc1OC	i	0.65
Cn1c(=O)n(C)c2cc(S(=O)(=O)Nc3cc(Cl)ccc3O)ccc21	i	0.25
O=Cc1coc2ccc3ccccc3c2c1=O	-8.08*	1.1*
CCOc1ccc(/C(CC)=N/NC(=O)C2(C)CC2(Br)Br)cc1 (stereo not drawn)	i	1.93
COc1cccc(C(=O)NCCS(=O)(=O)NCCc2ccccc2)c1	i	0.89
O=C(COC(=O)CCCN1C(=O)c2ccccc2C1=O)Nc1cc(Cl)cc(Cl)c1	i	0.61
O=C(NCc1ccccc1)N(Cc1cc2cc3c(cc2[nH]c1=O)OCCO3)CC1CCCO1 (stereo not drawn)	i	-2.14
CCOC(=O)CNc1nc2ccccc2n2c(C)nnc12	i	1.01
Cc1c(NC(=O)C(C)OC(=O)/C=C/c2ccccc2)c(=O)n(-c2ccccc2)n1C (stereo not drawn)	i	-1.45
CCOc1ccc(NC(=O)Nc2ccc3c(c2)N(C)C(=O)CS3)cc1	i	0.85
O=C(NCCCO)c1ccc(CSc2nc3ccccc3[nH]2)cc1	i	0.09
O=C(CSc1nnnn1C1CCCCC1)NCc1ccccc1	i	-1.56
C/C=C/c1ccc(OCCN2C(=O)NC(C)(C)C2=O)c(OC)c1	i	0.88
CC(C)CNc1nc(Oc2ccc(=O)[nH]n2)nc(N(C)C)n1	i	-1.48
COc1ccc(OC)c(CN(CCN2CCOCC2)C(=O)Nc2cccc(Cl)c2)c1	i	1.06
Brc1cccc(-c2nnc(SCc3ccon3)n2-c2ccccc2)c1	i	-0.59
O=C(CSc1nnc(-c2ccc(Cl)cc2)n1-c1ccc(Cl)cc1)N/N=C/c1ccco1	i	-0.1
O=C(Nc1nc(-c2cccnc2)cs1)c1ccccc1Cl	i	0.49
Cn1c(Cn2c(=O)sc3ccccc32)nnc1SCc1cccnc1	i	-2.6
CCOC(=O)c1nn(-c2ccc(OCC)cc2)c2nc(CC(C)C)c(C#N)c(=O)n12	i	0.67
CC1CCCC(C)N1CC(O)COc1c(F)cc(Br)cc1F (stereo not drawn)	i	1.42

5 consecutive entries already listed:
SMILES	KCNQ2 inh	KCNQ2 inh baseline
CC(C)CNc1nc(Oc2ccc(=O)[nH]n2)nc(N(C)C)n1	i	-1.48
COc1ccc(OC)c(CN(CCN2CCOCC2)C(=O)Nc2cccc(Cl)c2)c1	i	1.06
Brc1cccc(-c2nnc(SCc3ccon3)n2-c2ccccc2)c1	i	-0.59
O=C(CSc1nnc(-c2ccc(Cl)cc2)n1-c1ccc(Cl)cc1)N/N=C/c1ccco1	i	-0.1
O=C(Nc1nc(-c2cccnc2)cs1)c1ccccc1Cl	i	0.49

(listing goes on)
SMILES	KCNQ2 inh	KCNQ2 inh baseline
CCc1nnc(NS(=O)(=O)c2ccc(NC(=O)C(c3ccccc3)c3ccccc3)cc2)s1	i	1.34
Cc1ccc2c(N)c(C(=O)N(c3ccccc3)c3ccccc3)sc2n1	i	0.79
Cc1nc2ccc(S(=O)(=O)NCC(=O)N3CCCC(C)C3)cc2s1 (stereo not drawn)	i	1.22
CC1CC(C)CN(C(=O)c2ccc(C(=O)c3ccccc3)cc2)C1 (stereo not drawn)	i	-1.17
O=C(Nc1nnc(-c2cccs2)o1)c1cccc(F)c1	i	-1.6
O=C(Nc1ccc(Cl)c(S(=O)(=O)N2CCOCC2)c1)c1cn2ccccc2n1	i	-0.35
CC(C)c1ccc(NC(=O)c2cc(Br)ccc2Br)cc1	i	1.15
CCc1ccc(OCC(=O)NNC(=O)Cc2c(F)cccc2Cl)cc1	i	-0.01
Cc1sc(NC(=O)CSc2nnc(-c3ccc(F)cc3)o2)c(C#N)c1C	i	-1.25
C=CCN(c1ccc(C(=O)NCCSc2ccccc2)cc1)S(C)(=O)=O	i	-1.76
Cc1ccc(-n2c(N)c(C(=O)N3CCCCC3)sc2=S)cc1	i	0.01
CCOC(=O)C/C(N)=N/NC(=O)c1ccc(Cl)cc1Cl	i	0.03
COc1ccc(CNC(=O)c2cnccn2)cc1	i	0.01
COc1ccc(C(C(=O)NCc2ccccc2)N(Cc2ccc3c(c2)OCO3)C(=O)c2cnccn2)cc1 (stereo not drawn)	i	-0.21
Cc1c(S(=O)(=O)Nc2ccc(Br)cc2)c(=O)n(C)c(=O)n1C	i	-0.43
Cc1cc(C(=O)O)n(C(C)(C)C)n1	i	0.21
Cn1nnnc1SCC(=O)NCc1ccc2c(c1)OCO2	i	-1.61
COc1ccc2c(c1)C(=O)C(=O)N2CCS(=O)(=O)c1ccccc1	i	-0.56
O=C(Nc1cccc(C(F)(F)F)c1)c1cccnc1NCCc1ccccc1	i	1.1
Cc1ccc(NC(=O)CN(C)CC(=O)Nc2ccc(F)c(Cl)c2)cc1	i	1.24
CC(/C=C/c1ccccc1)=N/NC(=O)CCC(=O)Nc1ccccc1C	i	-0.06
COc1cc(NC(=O)C2COc3ccccc3O2)c(OC)cc1Cl (stereo not drawn)	i	-0.16
CC(=O)Nc1ccc(S(=O)(=O)NCC(=O)OCC(=O)NCc2ccco2)cc1	i	-0.05
NNC(=O)/C(=C\c1ccco1)NC(=O)c1ccco1	i	0.37
O=C1CCc2cc(S(=O)(=O)NCc3ccccc3)cc3c2N1CC3	i	-0.32
O=S(=O)(Nc1nc2c(s1)CCCC2)c1ccc(Br)cc1	i	0.64
CC1(CCBr)C(=O)N(c2ccccc2)c2ccccc21 (stereo not drawn)	i	-0.05
COC(=O)C1=C(C)N(CCc2ccc(OC)c(OC)c2)C(=O)/C1=C\c1ccc(O)cc1	i	-0.69
O=C(c1cc2ccccc2oc1=O)N(Cc1ccccc1F)C1CCS(=O)(=O)C1 (stereo not drawn)	i	1.9
Cc1ccc2cc(C3CC(c4ccco4)=NN3S(C)(=O)=O)c(Cl)nc2c1 (stereo not drawn)	i	0.97
Cc1ccc(C(=O)N(CCc2ccccc2)Cc2ccccc2)cc1S(=O)(=O)N1CCCCC1	-8.06*	0.99*
COc1ccc(N(Cc2ccccc2)S(=O)(=O)c2cc(C(=O)O)ccc2Cl)cc1	i	-0.3
CN(CCN1CCOCC1)C(=O)CC1C(=O)NCCN1Cc1ccccc1C(F)(F)F (stereo not drawn)	i	0.54
CN1CCN(CCCNC(=O)CCc2nnc3n(Cc4ccccc4Cl)c(=O)c4ccccc4n23)CC1	i	-0.53
CCOc1cnn(-c2ccccc2)c(=O)c1Cl	i	-0.17
CCOc1ccc(Cc2c(Cl)nc(N)nc2Cl)cc1	i	0.07
CC(=O)NC1C(=O)N(CCN2CCOCC2)c2ccc(C)cc21 (stereo not drawn)	i	1.08
Cc1cc2nc(C)n3c4ccccc4nc3n2n1	i	0.96
CN(C)/C=N/C(=S)Nc1ccccc1	i	0.17
C=CCSC1=N/C(=C\c2sccc2C)C(=O)S1	i	0.05
CC1CCCN(C(=O)c2ccc(S(=O)(=O)Nc3ccccc3Cl)cc2)C1 (stereo not drawn)	i	1.92
OC(Cn1ccnc1)c1ccc(Cl)cc1Cl (stereo not drawn)	i	0.18
CON(C)c1nc(OCCNC(=O)OCc2ccc(Cl)cc2Cl)nc(N(C)C)n1	i	6.19
CSCC[C@H](NC(=O)COc1ccc(Cl)cc1)c1nc2ccccc2[nH]1	i	-0.48
COC(=O)c1ccc(NC(=S)N(Cc2cccnc2)Cc2ccco2)cc1	i	0.08
Cc1cc(Nc2ccc(N3CCC(C)CC3)cc2)n2ncnc2n1	i	-0.57
Cc1cc(N2CCOCC2)nc(C(C)C)n1	i	0.04
COc1ccccc1NS(=O)(=O)c1cccc(C(=O)NNC(=O)c2ccc(O)c(Cl)c2)c1	i	-2.34
Cc1ccc(-n2c(Cc3cccn3C)nnc2SCC(=O)N2CCc3ccccc32)cc1	i	-0.42
COc1ccc([C@H]2[C@H]3C=CC[C@@H](C)[C@@H]3C(=O)N2Cc2ccccc2)cc1Cl	i	1.17
COc1ccc(C(C#N)N2N=C(C)CC2(C)C)cc1OC (stereo not drawn)	i	-1
CC(=O)C1=C(C)NC(SCC(N)=O)=C(C#N)C1c1cccs1 (stereo not drawn)	i	0.26
C=CCn1cc(C(=O)N2CCN(C)CC2)c(=O)c2cc(S(=O)(=O)N(CC)CC)ccc21	i	1.4
O=C(NC(=S)Nc1cccc2cccnc12)c1cccs1	i	0.64
Brc1ccc2nc(-c3cccs3)c(NCC3CCCO3)n2c1 (stereo not drawn)	i	2.21
Cc1cccc(NC(=O)CCc2nc3sc4c(c3c(=O)[nH]2)CCCC4)c1	i	-1.17

(more compounds)
SMILES	KCNQ2 inh	KCNQ2 inh baseline
CCOc1ccc(N(CC(=O)Nc2nccs2)S(=O)(=O)c2c(C)noc2C)cc1	i	1.39
Cc1ccc(CNC(=O)C(=O)NCCC2CCCCN2S(=O)(=O)c2ccccc2)cc1 (stereo not drawn)	i	1.61
O=C(Nc1ccc(F)cc1F)N1CCN(c2ncccn2)CC1	i	0.15
O=C(NCCCN1CCOCC1)c1cc(-c2ccc(F)cc2)no1	i	-0.01
COc1ccc(C(=O)Nc2ccccc2C(=O)N/N=C/c2ccccn2)cc1OC	i	-0.94
CCOC(=O)c1ccccc1NC(=O)CSc1ccc(-c2ccccn2)nn1	i	2.54
Cc1cc(C)nc(N2N=C(c3ccccc3)CC2=O)n1	i	-1.27
C=CCSc1nnc(C)n1-c1ccc(Cl)cc1	i	0.15
O=C(NC1CCCCC1)N1CCc2[nH]c3ccccc3c2C1	i	0.9
